Bioassay records deposited in PubChem by Broad Institute.
Ecoli rRNA inh: inhibitors of bacterial rRNA selective over humanized ribosomes. 1.6% of 350,000 active. E. coli WT GFP vs humanized-ribosome RFP mutants, fluorescence, 24 h; hits give low values; DMSO median 0, no signal -100. GFP signal change (wild-type ribosome), % (test concentration not listed);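 active = significant combined selectivity score with lowered wild-type GFP, culture density cut under 30%, mutant RFP and density less affected; inactive = any of these conditions unmet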; also: one replicate is shown; some compounds called inactive have numbers as strong as hits
Ecoli rRNA inh OD600: further read-out of Ecoli rRNA inh, marked with its call; OD600 change, %; measured here: OD600 growth;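 optical density of the mix in the first replicate; 0 = DMSO median and -100 = no signal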
Ecoli rRNA inh RFP: also measured in Ecoli rRNA inh; calls as there; RFP signal change, %; measured here: RFP humanized mutant strains;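 first replicate; 0 = DMSO median and -100 = no signal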
* marks the source's active call; other numbers are inactive results; & = joins results of further samples. This is a subset; rates above refer to the full screens.

Ecoli rRNA inh | Ecoli rRNA inh OD600 | Ecoli rRNA inh RFP | Molecule
1.2 | 3.7 | 6.3 | CC(C)NC(=O)N[C@@H]1CC[C@@H](CC(=O)NCCN2CCCC2)O[C@H]1CO
-1.5 | -13.3 | -0.1 | O=C(Nc1ccc2c(c1)[C@H]1C[C@H](CC(=O)N3CCOCC3)O[C@H](CO)[C@H]1O2)c1ccc2c(c1)OCO2
-1.6 | -12.1 | 3.3 | C[C@H]1CN([C@@H](C)CO)C(=O)c2cc(NC(=O)Nc3ccc4c(c3)OCO4)ccc2O[C@H]1CN(C)Cc1ccc(Oc2ccccc2)cc1
1.5 | 9.4 | -2.1 | O=C(Nc1nc(OCC(F)(F)F)cnc1/C=C\c1ccccc1)c1ccsc1
1.2 | 2.7 | 4.3 | C[C@@H]1CN([C@@H](C)CO)C(=O)Cc2cc(NS(=O)(=O)c3cn(C)cn3)ccc2O[C@H]1CN(C)CC1CCCCC1
-0.8 | -0.8 | -0.6 | CC(=O)N1[C@@H](CO)[C@@H](c2ccccc2)[C@@H]1CN(CC(C)C)C(=O)c1ccccn1
5.2 | 4.3 | -0.5 | CC(C)C#Cc1cnc2c(c1)C(=O)N([C@H](C)CO)C[C@@H](C)[C@H](CN(C)Cc1ccccn1)O2
5.2 | -8.8 | -0.7 | O=C(Nc1ccccc1)C1Cc2c(-c3ccccc3Oc3ccccc3)ccnc2O1 (stereo unspecified)
-3.4 | -2.4 | 0.6 | O=C(Nc1ccccc1F)N[C@@H]1CC[C@@H](CCNS(=O)(=O)c2ccccc2)O[C@H]1CO
2.0 | 8.0 | -1.9 | CC(C)NC(=O)Nc1cccc2c1O[C@H](CN(C)S(C)(=O)=O)[C@H](C)CN([C@@H](C)CO)C2=O
-55.0 | -73.4 | -8.5 | COc1ccc(C#Cc2ccc([C@H]3[C@H](CO)N4CCCCN(C(=O)Nc5ccccc5)C[C@@H]34)cc2)cc1
4.2 | 9.9 | -1.0 | CCC(=O)N1CC(=O)N2[C@H](CO)[C@H](c3ccc(C#CCc4ccccc4)cc3)[C@H]2C1
-0.5 | -2.5 | -2.0 | O=C(NCC[C@@H]1CC[C@H](NC(=O)c2ccccc2F)[C@@H](CO)O1)c1ccc2c(c1)OCO2
4.8 | -3.3 | 1.4 | O=C(/C=C1\OCc2ccccc21)OCc1ccccc1
4.6&2.8 | 4.1&6.5 | 5.2&-0.5 | Cc1noc(C)c1NC(=O)N(C)C[C@H]1OCCCC[C@@H](C)Oc2ccc(NS(=O)(=O)c3ccccc3)cc2C(=O)N([C@H](C)CO)C[C@@H]1C
3.9 | 16.9 | -0.3 | C[C@@H]1CN([C@@H](C)CO)C(=O)c2cc(NC(=O)c3ccncc3)ccc2O[C@@H]1CN(C)C
10.4 | 23.4 | 2.8 | COC(=O)C[C@@H]1CC[C@H](NC(=O)Cc2ccccn2)[C@@H](CO)O1
-0.1 | 2.6 | -3.2 | C[C@H]1CN([C@@H](C)CO)C(=O)c2ccccc2-c2ccccc2CO[C@H]1CN(C)Cc1ccncc1
-54.8 | -71.1 | -18.7 | Cc1ccc(Cl)cc1-c1cc(C(=O)NCc2ccccc2)[nH]n1
-23.5 | -52.0 | -2.7 | COC(=O)C1=C(C)N(CC(C)C)C(=S)NC1c1cccc(OC)c1 (stereo unspecified)
-8.0 | -15.2 | 3.6 | C[C@@H]1CN([C@@H](C)CO)C(=O)Cc2cc(NC(=O)Cc3cn(C)c4ccccc34)ccc2O[C@H]1CN(C)Cc1ccncc1
3.0 | 4.0 | 0.6 | COCC(=O)N(C[C@H]1N[C@H](CO)[C@@H]1c1ccc(-c2ccccc2)cc1)C(C)C
3.1 | -36.3 | 30.3 | CC(C)CC#Cc1cnc2c(c1)C(=O)N([C@@H](C)CO)C[C@H](C)[C@@H](CN(C)Cc1ccc3c(c1)OCO3)O2
1.3 | 4.0 | -0.4 | C[C@@H]1CN([C@@H](C)CO)C(=O)c2cc(NC(=O)Nc3ccccc3)ccc2O[C@H]1CN(C)Cc1ccncc1
7.5 | -13.5 | 4.9 | COC(=O)C1=C(C)N(C)C(=NCc2ccc3c(c2)OCO3)NC1c1ccc(Cl)cc1 (stereo unspecified)
-1.2 | -2.8 | -1.8 | C[C@H]1CN([C@@H](C)CO)C(=O)c2cc(Br)cnc2O[C@@H]1CN(C)Cc1ccc2c(c1)OCO2
20.7 | 19.3 | 3.7 | CN(Cc1ccccc1)C(=O)c1cccc(NC(=O)Cc2ccc(NC(=O)C3CCCN(S(=O)(=O)c4cccc([N+](=O)[O-])c4)C3)cc2)c1 (stereo unspecified)
4.3 | 3.3 | 7.9 | Cc1ccc2nc(-c3ccco3)c(Cc3ccsc3)n2c1
10.9 | 3.0 | 0.2 | Cc1ccc(CN2CCC[C@]3(N[C@H](c4ccccc4)[C@@H]4C(=O)N(C)C(=O)[C@@H]43)C2=O)cc1
1.9 | -8.6 | 4.2 | COc1ccc(-c2ccc3c(c2)O[C@H](CN(C)CC2CC2)[C@H](C)CN([C@@H](C)CO)S3(=O)=O)cc1
0.6 | 9.1 | 1.0 | C[C@H](CO)N1C[C@H](C)[C@H](CN(C)C(=O)Nc2cc(F)ccc2F)Oc2cc(/C=C/c3ccccc3)ccc2S1(=O)=O
-4.9 | -0.8 | -3.2 | C[C@H]1CN([C@@H](C)CO)C(=O)Cc2cc(NC(=O)Nc3ccc4c(c3)OCO4)ccc2O[C@@H]1CN(C)Cc1ccc(C(=O)Nc2ccccc2N)cc1
0.3 | 7.3 | -2.4 | Cc1cc(C)cc(CC(=O)N2CCC2(C)C(=O)NS(=O)(=O)c2ccccc2)c1 (stereo unspecified)
5.3 | 5.5 | -1.0 | COc1ccc2c3c(n(C)c2c1)[C@@H](CO)N(C(=O)CN(C)C)CC31CCN(C(=O)CN(C)C)CC1
1.0 | 6.6 | -5.5 | O=C(CC1CC1)N1CC(=O)N2[C@H](C1)[C@H](c1ccc(-c3cccnc3)cc1)[C@@H]2CO
1.6&-2.8 | 0.0&-3.4 | 3.7&-0.9 | C[C@@H]1CN([C@H](C)CO)C(=O)CCCn2nncc2CO[C@@H]1CN(C)S(=O)(=O)c1ccc2c(c1)OCCCO2
-4.7 | -17.4 | 10.1 | C[C@H](CO)N1C[C@H](C)[C@H](CN(C)Cc2ccc3c(c2)OCO3)OCc2ccccc2-c2c(n(C)c3ccccc23)C1=O
0.4 | 10.2 | -0.6 | CNC[C@@H]1Oc2ccc(NC(=O)C3CC3)cc2C(=O)N([C@@H](C)CO)C[C@H]1C
0.1 | -9.9 | 1.0 | O=C(C[C@@H]1CC[C@@H]2[C@H](COC[C@H](O)CN2Cc2cccc(Cl)c2)O1)N1CCCCC1
6.3 | 16.8 | -2.6 | C[C@H]1CN([C@@H](C)CO)C(=O)c2cc(-c3cccnc3)cnc2O[C@H]1CN(C)C(=O)C1CCC1
-8.6 | -43.7 | 33.0 | C[C@H](CO)N1C[C@H](C)[C@H](CN(C)Cc2ccc3c(c2)OCO3)Oc2ncc(/C=C/c3ccccc3)cc2C1=O
-6.0 | -0.9 | -1.3 | O=C(C[C@H]1C[C@@H]2c3cc(NC(=O)NC4CCCCC4)ccc3O[C@@H]2[C@H](CO)O1)NCc1cccnc1
2.9 | -2.7 | 2.0 | CCN1[C@@H]2Cn3c(ccc(-c4ccccc4)c3=O)[C@H]1[C@@H](C(=O)NCc1ccccc1)[C@@H]2CO
0.8 | 3.9 | 0.7 | CC(=O)N1[C@H](CO)[C@H]2c3ccccc3N(S(=O)(=O)c3ccccc3C)C[C@H]21
3.5 | 5.1 | -2.3 | Cn1cnc(S(=O)(=O)N[C@H]2CC[C@@H](CC(=O)NCC3CC3)O[C@H]2CO)c1
2.1 | 7.9 | -0.8 | CS(=O)(=O)N1[C@H](C#N)[C@@H](c2ccc(-c3ccccc3F)cc2)[C@H]1CO
8.6 | 12.4 | 1.9 | CC1(C(=O)NS(=O)(=O)c2ccc(Cl)s2)CCN1C(=O)Cc1ccccc1Cl (stereo unspecified)
2.2 | -3.0 | -1.9 | O=C(C[C@@H]1C[C@@H]2c3cc(NC(=O)NC4CCCCC4)ccc3O[C@@H]2[C@@H](CO)O1)NCc1ccccn1

Whole records, quoted from the list.
`O=C(C[C@H]1C[C@@H]2c3cc(NC(=O)NC4CCCCC4)ccc3O[C@@H]2[C@H](CO)O1)NCc1cccnc1` in the list: Ecoli rRNA inh = -6.0; Ecoli rRNA inh OD600 = -0.9; Ecoli rRNA inh RFP = -1.3
`Cn1cnc(S(=O)(=O)N[C@H]2CC[C@@H](CC(=O)NCC3CC3)O[C@H]2CO)c1` in the list: Ecoli rRNA inh = 3.5; Ecoli rRNA inh OD600 = 5.1; Ecoli rRNA inh RFP = -2.3

(cont.)
Ecoli rRNA inh | Ecoli rRNA inh OD600 | Ecoli rRNA inh RFP | Molecule
3.6 | 10.2 | -6.1 | CCOC(=O)[C@@H](NC(=O)CC[C@H]1O[C@@H](n2ccc(=O)[nH]c2=O)[C@H](O)[C@@H]1O)C(C)C
3.8 | 6.0 | -5.3 | C[C@@H]1CCCCO[C@H](CN(C)S(=O)(=O)c2ccc(Cl)cc2)[C@@H](C)CN([C@H](C)CO)C(=O)c2cc(NC(=O)Nc3ccc(C(F)(F)F)cc3)ccc2O1
-1.5 | 7.0 | -0.7 | CCOC(=O)C1(C)CCCN1C(=O)c1csnn1 (stereo unspecified)
-0.1 | -4.3 | -1.7 | CN1C(=O)c2cc(NC(=O)c3ccc(F)cc3)ccc2OC[C@H]2O[C@@H](CC(=O)NC3CCC3)CC[C@@H]21
-5.5 | -3.3 | -0.7 | CCC(=O)NC[C@H]1[C@@H](c2ccc(-c3ccccc3)cc2)[C@H](CO)N1C(=O)C1CC1
-1.4 | 7.1 | -0.8 | CC(=O)N(C)C[C@H]1Oc2ccc(N(C)C)cc2CC(=O)N(C)C[C@H]1C
-8.1 | -13.2 | 4.1 | COc1ccc(-c2ccc3n(c2=O)C[C@H]2[C@H](CO)[C@@H](C(=O)NC4Cc5ccccc5C4)N[C@@H]32)cc1
-2.1 | -6.2 | 0.4 | CCC(=O)Nc1ccc2c(c1)C(=O)N(C)[C@H]1CC[C@@H](CC(=O)N[C@H](C)c3ccccc3)O[C@H]1CO2
-6.7 | -5.7 | 0.6 | COc1cccc(S(=O)(=O)N[C@H]2CC[C@H](CC(=O)NCc3ccc(Cl)cc3)O[C@H]2CO)c1
-0.3 | 0.1 | -0.2 | CC(C)NC(=O)N(C)C[C@@H]1OCc2cn(nn2)CCCC(=O)N([C@H](C)CO)C[C@@H]1C
2.6 | 10.1 | -3.2 | C[C@H]1CN([C@@H](C)CO)C(=O)c2cc(NS(=O)(=O)c3cn(C)cn3)ccc2O[C@H]1CN(C)CC1CC1
2.4 | 6.6 | -0.8 | C[C@@H]1CN([C@@H](C)CO)C(=O)c2cc(NC(=O)c3ccncc3)ccc2O[C@H]1CN(C)Cc1ccccc1
4.7 | 8.9 | -0.5 | Cc1noc(C)c1NC(=O)Nc1ccc2c(c1)CC(=O)N([C@H](C)CO)C[C@@H](C)[C@@H](CN(C)C)O2
7.7 | 8.9 | -3.7 | N#C[C@H]1[C@H](c2ccccc2)[C@@H](CO)N1C(=O)C1CCCC1
-1.2 | -1.1 | -1.1 | COc1ccc(NC(=O)N(C)C[C@H]2Oc3c(NC(=O)CCCCCC(=O)Nc4ccccc4N)cccc3C(=O)N([C@H](C)CO)C[C@H]2C)cc1
8.3 | -1.2 | 3.3 | C[C@@H]1CCCCO[C@@H](CN(C)CC2CCCCC2)[C@H](C)CN([C@@H](C)CO)C(=O)c2cc(NC(=O)c3ccccc3)ccc2O1
1.7 | 5.0 | 1.1 | CCCNC(=O)N1C[C@H](C)[C@H](OC)CN(C)C(=O)c2ccc(NC(C)=O)cc2OC[C@H]1C
4.5 | 9.7 | 6.5 | COc1ccc(-c2ccc3c(n2)CCCN3S(=O)(=O)c2ccc(C#N)cc2)cc1
1.7 | -1.6 | 4.2 | CO[C@@H]1CN(C)C(=O)c2ccc(NC(=O)Nc3ccccc3)cc2OC[C@H](C)N(CC2CC2)C[C@@H]1C
4.3 | 19.2 | -1.6 | C[C@H]1CN([C@@H](C)CO)C(=O)c2cc(NS(C)(=O)=O)ccc2O[C@@H]1CN(C)C(=O)Nc1cccc2ccccc12
2.3 | -22.6 | 1.9 | Cc1ccc(S(=O)(=O)Nc2ccc3c(c2)CC(=O)N([C@H](C)CO)C[C@H](C)[C@H](CN(C)Cc2ccccc2)O3)cc1
0.3 | -1.0 | 0.5 | COc1ccc2c3c([nH]c2c1)[C@@H](CO)N(S(=O)(=O)c1cn(C)cn1)CC31CCN(CC2CC2)CC1
-13.9 | -29.8 | -8.8 | Cc1ccc(S(=O)(=O)/N=C2\C=C(NS(=O)(=O)c3ccc(C)cc3)C(=O)c3ccccc32)cc1
-3.2 | 13.9 | 4.9 | COc1cccc(CNc2nc3cc(-c4ccc(C(=O)N5CCN(C)CC5)cc4)sc3c(=O)n2C)c1
-4.1 | -1.3 | 0.9 | C[C@H]1CN([C@@H](C)CO)C(=O)c2cccc(NC(=O)c3ccc(-c4nccs4)cc3)c2O[C@H]1CN(C)C(=O)Nc1ccc(F)cc1
-7.0 | -22.2 | 20.2 | C[C@H]1CN([C@@H](C)CO)C(=O)c2cc(/C=C/c3ccccc3)cnc2O[C@@H]1CN(C)C(=O)c1cccc(F)c1
3.2 | 14.4 | -0.8 | CC1(C(=O)NS(=O)(=O)C2CC2)CCN(C(=O)c2cc(F)cc(F)c2)C1 (stereo unspecified)
-5.1 | -3.0 | -1.5 | COc1ccc2c3c([nH]c2c1)[C@H](CO)N(C(=O)Nc1ccc(F)cc1)CC31CN(C(=O)Nc2ccccc2)C1
-0.3&-14.7 | -2.0&-11.0 | -3.2&2.3 | Cc1ccc(S(=O)(=O)N2[C@@H]3CNC[C@H]2C3c2ccc(-c3cccnc3)cc2)cc1 (stereo partly specified)
4.7 | 3.3 | -3.9 | O=C(Cc1cccnc1)N1CC2(C1)[C@H](c1ccccc1)[C@H](CO)N2C(=O)C1CCCC1
